Screening data deposited in PubChem BioAssay by National Center for Advancing Translational Sciences (NCATS).
miR-21 reporter: qHTS Assay for Modulators of miRNAs and/orActivators of miR-21; HeLa miR-21 FLuc reporter, luciferase, 48 h; 340,000 tested, under 10 active; Potency, µM (highest dose often 38.3 µM), for the others: at the top dose reporter change, positive = more light; AID 2288, 2010; active = well fitted rising curve with a large enough effect; inconclusive = small, poorly fitted or top-dose-only effect; inactive = no such curve, though single readings can be large or run the other way;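 note: % of control where 0% means no effect; miR-21 action dims this reporter so a rising signal means less miR-21 action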
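HeLa cells stably expressing CMV-driven firefly luciferase with a downstream miR-21 binding sequence, endogenously expressing miR-21, were treated with titrations (up to about 40uM final) for 48 hours at 37 degree Celsius. Luciferase luminescence was read after lysis.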
Rango dissoc inh: qHTS Assay for Inhibitors of RanGTP induced Rango (Ran-regulated importin-beta cargo) - Importin beta complex dissociation. Biochemical FRET Rango-importin beta, RanGTP-induced dissociation. Potency, µM (series often up to 46.1 µM), inactives show at the highest dose activity change, negative = inhibition. 0.071% of 340,000 active; active means falling FRET ratio curve, often poorly fitted, with flat reads before Ran was added; inconclusive means other falling curves, or compound fluorescence or quenching; inactive means flat or rising ratio curve;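 note: potency is the fitted concentration of half-maximal effect; % of control where 0% means no effect; nearly all actives have a fitted effect of over 45% in size; -100% = wells without RanGTP and RCC1; the record marks most hits as doubtful in a second field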
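FRET read at 45 min, room temperature: inhibitors block the CFP/YFP signal rise when RanGTP (0.6 uM Ran, 2 mM GTP, 0.2 uM RCC1) frees Rango (0.1 uM) from importin beta (0.25 uM). Pre-read after 5 min compound exposure flags interference.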
Rango-impB inh: qHTS Assay for Inhibitors of Rango (Ran-regulated importin-beta cargo) - Importin beta complex formation; Importin subunit beta-1 (Homo sapiens), Q14974; Potency, µM (top dose mostly 92.2 µM), inactives show at the top dose inhibition of complex formation; AID 540263, 2011; 0.031% of 340,000 active; Rango CFP/YFP FRET sensor + importin beta, 45 min; active = rising FRET ratio curve, often small or poorly fitted; inconclusive = mostly compound fluorescence or quenching in the first reads; inactive = flat curves in all reads;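 note: potency is the fitted concentration of half-maximal effect; 0% = DMSO wells and 100% = buffer wells lacking importin beta; nearly all actives have a fitted effect of over 15% in size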
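Inhibition scored from the CFP 486 nm/YFP 530 nm FRET ratio 45 min after adding 0.125 microM importin beta to 50 nM Rango biosensor preincubated 5 min with compound (room temperature, PBS with DTT, Tween-20, BSA). No-importin wells as positive control.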
GLA inh pH 4.5: qHTS Assay for Inhibitors of Human alpha-Galactosidase at pH 4.5; Alpha-galactosidase A (Homo sapiens), P06280; purified enzyme, 4-MU-alpha-Gal fluorescence, pH 4.5; activity change, negative = inhibition, % at 105 µM; 230,000 tested, under 10 active; AID 1467, 2008; inconclusive = small, poorly fitted or top-dose-only inhibition, or a rising curve; inactive = flat fitted curve, though single readings scatter; no compound was filed as active;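 note: 0% = full activity with enzyme and -100% = basal without enzyme; dose as in the result columns while the protocol names 77 µM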
Target sequence (P06280 whole entry, looked up): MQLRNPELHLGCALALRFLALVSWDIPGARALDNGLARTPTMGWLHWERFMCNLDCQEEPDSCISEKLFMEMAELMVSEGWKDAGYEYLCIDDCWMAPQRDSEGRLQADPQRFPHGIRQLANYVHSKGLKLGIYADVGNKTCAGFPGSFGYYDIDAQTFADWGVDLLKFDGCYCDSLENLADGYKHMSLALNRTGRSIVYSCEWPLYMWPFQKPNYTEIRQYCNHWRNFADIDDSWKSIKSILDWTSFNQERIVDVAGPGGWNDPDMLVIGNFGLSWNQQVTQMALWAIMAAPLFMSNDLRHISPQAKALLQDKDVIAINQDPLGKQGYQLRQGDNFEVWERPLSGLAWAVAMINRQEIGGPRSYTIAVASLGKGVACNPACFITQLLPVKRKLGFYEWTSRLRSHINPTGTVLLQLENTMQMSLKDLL
* hit, by the source's call; ? = inconclusive; . = not tested or not shown. A portion of the library; count on the stated rates, not on these rows.

item	structure	miR-21 reporter	Rango dissoc inh	Rango-impB inh	GLA inh pH 4.5
1	CC(=O)Nc1c(C)ccc2nsnc12	-5%	-7%	-2.1%	1
2	O=C(OCC(=O)N1CCN(c2ccc(F)cc2)CC1)c1cnc2ccccc2n1	.	-8%	-2.5%	.
3	CNC(=O)c1ccsc1NC(=O)CCS(=O)(=O)c1ccc(C)cc1	.	42%	0.4%	.
4	CCNC(=O)CN(C1CCCCC1)S(=O)(=O)c1ccc(F)cc1	1%	-13%	-5.3%	8
5	CC(C)=CC(=O)Nc1nnc(-c2ccc(F)cc2)s1	-10%	-4%	0.9%	1
6	COc1ccc(N=C(N)SCc2ccccn2)cc1	-26%	21%	-3.0%	0
7	CCOC(=O)C1=C(CN2CCSCC2)NC(=O)NC1c1cc(C)ccc1C (stereo not drawn)	-1%	-3%	-3.6%	-10
8	O=C(NCC(=O)N1CCOCC1)c1ccc(Br)cc1	-23%	-9%	-1.1%	.
9	Cc1ccccc1NC(=O)Cc1nc(COC(=O)c2ccc(S(C)(=O)=O)c([N+](=O)[O-])c2)cs1	.	0%	0.3%	.
10	COc1ccc(CC(=O)NCC2CCCN(Cc3ccc(F)cc3F)C2)cc1 (stereo not drawn)	-9%	-6%	3.6%	.
11	CC(C)CN(CC(C)C)CC(O)CN(c1ccccc1)S(=O)(=O)c1ccccc1[N+](=O)[O-] (stereo not drawn)	17%	-2%	-3.7%	-11
12	Cn1c(NC(=O)c2cccc(Cn3cc(Cl)cn3)c2)nc2ccccc21	-63%	0%	-2.0%	2
13	CC1CCc2c(sc3nc(C(C)(C)C)nc(N4CCN(C(=O)CCl)CC4)c23)C1 (stereo not drawn)	?	-17%	-1.2%	.
14	CC[C@H](C)[C@H](NC(N)=O)C(=O)NCCc1ccc(Cl)cc1	1%	3%	2.2%	-2
15	Cc1ccc(C(=O)N2NC(c3ccc(F)cc3)C3C(=O)N(c4ccc(C)c(C)c4)C(=O)C32)cc1 (stereo not drawn)	-14%	4%	-2.6%	2
16	COC(=O)C(Cc1csc2ccc(Cl)cc12)NC(=O)c1ccc(Cl)cc1 (stereo not drawn)	-15%	1%	0.0%	8
17	Cn1cnnc1SC/C(O)=C(\C#N)c1nc2ccccc2[nH]1	-3%	-17%	-3.4%	1
18	CC(C(=O)Nc1ccccc1-c1ccccc1)N1CCCCC1 (stereo not drawn)	16%	3%	0.9%	-2
19	c1ccc(CNc2nc(CN3CCOCC3)nc3scc(-c4ccccc4)c23)cc1	-3%	-3%	0.0%	-2
20	COc1ccc(/C(O)=C2/C(=O)C(=O)N(CCN(C)C)C2c2ccc(F)cc2)cc1Cl (stereo not drawn)	-5%	-3%	0.5%	-1
21	CC(C)(C)C(=O)N1CCN(c2ccc(NC(=O)c3ccc4c(c3)OCCO4)cc2)CC1	?	4%	-0.1%	.
22	O=C1CC(c2cc3c(cc2Br)OCO3)C2=C(CCCC2=O)N1 (stereo not drawn)	0%	4%	-2.8%	-21
23	CCCCOc1ccccc1N1CCN(CCCN2C(=O)C3CCCN3C2=O)CC1 (stereo not drawn)	-11%	40%	-1.7%	.
24	N#Cc1ccc(CSc2nnc(-c3c[nH]c4ccccc34)n2-c2ccccc2)cc1	15%	-15%	-3.0%	-3
25	CCN(CC)c1ccc2c(-c3ccc(S(=O)(=O)O)cc3S(=O)(=O)[O-])c3ccc(=[N+](CC)CC)cc-3oc2c1	16%	?	?	.
26	CN(CC(=O)Nc1ccc(F)c(F)c1)S(=O)(=O)c1cccs1	-2%	-1%	5.7%	.
27	COc1ccc2c(C)cc(SCC#N)nc2c1	-1%	?	?	-3
28	CCOC(=O)c1c(C)n(C)c2ccc(O)c(CN3CCC(C)CC3)c12	8%	-2%	-4.4%	1
29	CC(=O)Nc1ccc(C(=O)N(C2=NC(C)CS2)c2ccc(Cl)cc2)cc1 (stereo not drawn)	-5%	-9%	1.6%	.
30	CC(=O)Nc1ccc(S(=O)(=O)C(C#N)c2nc3ccccc3nc2NCCO)cc1 (stereo not drawn)	-2%	-25%	?	?
31	CCC(=O)Nc1ccc(C(=O)CSc2nc(N)cc(N)n2)cc1	-2%	-17%	-3.2%	1
32	O=S(=O)(c1cccc(C(F)(F)F)c1)c1ccc(O)cn1	.	-3%	-1.5%	.
33	CCc1ccc(Nc2nnc(SC(C)C(=O)NC3CC3)s2)cc1 (stereo not drawn)	.	-23%	-0.7%	.
34	O=C1c2ccccc2NC(c2ccc(-c3ccc(F)cc3)o2)N1O (stereo not drawn)	.	-5%	0.4%	.
35	CSc1nnc(C)c(/C=C/NOCc2cccc(F)c2)n1	3%	4%	3.5%	-4
36	CCOc1ccc(-n2c(=O)[nH]cc(C(=O)N3CCc4ccccc43)c2=O)cc1	-6%	-9%	-0.9%	7
37	O=C(NCC(c1ccco1)N1CCN(c2ccc(F)cc2)CC1)c1cccs1 (stereo not drawn)	.	36%	0.1%	.
38	CCN(CC)Cc1c(C(=O)N/N=C/c2ccc(OCc3ccccc3C)cc2)nnn1-c1nonc1N	-11%	-1%	1.0%	.
39	O=C(CCCOc1ccccc1)Nc1cccc(S(=O)(=O)N2CCOCC2)c1	.	1%	0.0%	.
40	O=C1CCC(c2ccccc2)=NN1Cc1c(F)cccc1Cl	-4%	-7%	4.9%	-3
41	COc1ccc(CN(Cc2cc3cc4c(cc3[nH]c2=O)OCO4)C(=O)NC2CCCCC2)cc1	-2%	-11%	?	7
42	O=C(Nc1ccccc1)/C(=C/c1ccc(F)cc1)NC(=O)c1ccco1	-4%	-6%	-1.5%	.
43	COc1cccc(CN(CC(=O)NC2CCCCC2)C(=O)c2csnn2)c1	-1%	9%	4.4%	.
44	CCOc1ccc2c(c1)c1nnc(SCC(=O)NC3CC3)nc1n2C	-2%	8%	-1.2%	.
45	Cc1ccc(N(C)C(=O)c2cc(S(=O)(=O)N3CCCC3)cn2C)cc1	6%	19%	8.3%	.
46	COc1ccc(C(=O)n2cnc3ccccc32)cc1[N+](=O)[O-]	-2%	-10%	1.2%	.
47	Nc1ccccc1C(=O)N(Cc1ccccc1)Cc1ccccc1	-6%	2%	4.9%	-7
48	CCOC(=O)N1CCC(NC(=O)Cn2cc3c(n2)CCCC3)CC1	1%	-1%	4.4%	-9
49	O=C(c1cc(-c2ccccc2Cl)on1)N1CCN(C(=O)c2ccco2)CC1	-28%	-20%	1.1%	3
50	COc1ccccc1CNC(=O)CCCOc1cc(=O)n(C)c2ccccc12	-16%	-2%	0.0%	-1

The listing continues:
item	structure	miR-21 reporter	Rango dissoc inh	Rango-impB inh	GLA inh pH 4.5
51	O=c1cc(CN2CCOCC2)c2c(ccc3ccccc32)o1	-13%	-1%	1.8%	8
52	COc1ccc(CC(=O)n2[nH]c(=O)c3ccccc3c2=O)cc1OC	-1%	-10%	-1.9%	-2
53	NC(=O)C1(Nc2ccc([N+](=O)[O-])cc2)CCCC1	.	6%	2.0%	.
54	COc1cccc(CCC(=O)N2CCC(n3nccc3NC(=O)CC(C)C)CC2)c1	-6%	4%	-0.9%	.
55	COc1ccc(N2C3=C(CC4=C2CCCC4=O)C(=O)CCC3)cc1	-5%	?	?	7
56	COc1cccc(-c2nc(CS(=O)(=O)CC(=O)Nc3cc(OC)ccc3OC)c(C)o2)c1	4%	34%	-5.7%	.
57	C=CCn1c(SCC(=O)c2c(N)n(CCC)c(=O)n(C)c2=O)nnc1-c1ccncc1	0%	?	-2.2%	-7
58	C=CCn1c(SCC(=O)N(CC)c2c(N)n(Cc3ccccc3)c(=O)[nH]c2=O)nnc1-c1ccccc1OC	.	-23%	0.4%	.
59	CN(C(=O)c1ccc(F)cc1)c1ccc(OCC(=O)Nc2ccccc2C(=O)O)cc1	.	19%	-0.7%	.
60	N#Cc1c(-c2ccccc2)ccn(Cc2ccc(Cl)cc2)c1=O	-4%	7%	1.1%	-10
61	CC1Cc2ccccc2N1C(=O)C1CCN(S(=O)(=O)c2cccs2)CC1 (stereo not drawn)	-5%	0%	-1.3%	-2
62	CCN(CC(=O)NCc1cccs1)c1ccc(S(=O)(=O)N2CCCC2)cn1	-3%	-16%	0.6%	-7
63	CC1CN(S(=O)(=O)c2cc(C(=O)N3CCCCC3C)ccc2Cl)CC(C)O1 (stereo not drawn)	.	8%	-0.1%	.
64	CCn1nc(C)c(NC(=O)CCCSc2nc(-c3ccco3)cc(C(F)(F)F)n2)c1C	25%	-6%	2.5%	-3
65	CCc1nnc(NS(=O)(=O)c2ccc(NC(=O)c3ccc(S(=O)(=O)N(CC)CC)cc3)cc2)s1	-1%	14%	-2.9%	.
66	Cc1ccc2c(c1)NC(C(C)(C)C)CO2 (stereo not drawn)	-1%	3%	6.3%	3
67	CCOc1ccc(OCCN2C(=O)NC(Cc3c[nH]c4ccccc34)C2=O)cc1 (stereo not drawn)	15%	-16%	2.1%	4
68	O=C(CN(Cc1ccccc1)S(=O)(=O)c1ccccc1)N/N=C/c1ccc([N+](=O)[O-])cc1	10%	-3%	-3.8%	-4
69	COc1ccc(NC(=O)c2cc3cc(OC)ccc3oc2=O)cc1	.	-21%	-6.0%	.
70	CCCCN(C)CCCNC(=O)c1cc(=O)[nH]c2ccc(S(=O)(=O)N3CCCCC3C)cc12 (stereo not drawn)	-1%	0%	-0.9%	-1

Structural class, the entries above containing bromine (2)
item	structure	miR-21 reporter	Rango dissoc inh	Rango-impB inh	GLA inh pH 4.5
8	O=C(NCC(=O)N1CCOCC1)c1ccc(Br)cc1	-23%	-9%	-1.1%	.
22	O=C1CC(c2cc3c(cc2Br)OCO3)C2=C(CCCC2=O)N1 (stereo not drawn)	0%	4%	-2.8%	-21

Additional records.
item	structure	miR-21 reporter	Rango dissoc inh	Rango-impB inh	GLA inh pH 4.5
71	COc1ccc2c(c1)C(C)CC(C)(C)N2C(=O)Nc1ccccc1 (stereo not drawn)	-23%	-6%	0.4%	.
72	COc1cc(C)ccc1OCC(=O)OCC(=O)NCC1CCCCC1	.	-8%	0.1%	.
73	COc1ccc(N2CCN(C(=O)c3ccc(Cl)c(S(=O)(=O)N4CCOCC4)c3)CC2)cc1	.	-1%	0.0%	.
74	O=C1C(Cl)=C(NCC2CCCO2)C(=O)N1C1CCCCC1 (stereo not drawn)	-14%	-5%	?	4
75	C[C@H]1CCC[C@]2(O[C@H](CCO)C[C@@H](O)[C@@H]2O)O1	.	-14%	3.3%	.
76	O=C(c1sc2ccccc2c1Cl)N1CCN(c2ccccc2F)CC1	-5%	-15%	1.0%	-4
77	COc1ccc(CCNC(=O)CSc2ccc3ccccc3c2)cc1OC	-10%	-17%	-3.0%	-8
78	CC(C)(C)c1ccc(Cn2nnc3c(=O)[nH]c(C4CCCN(C(=O)c5cccs5)C4)nc32)cc1 (stereo not drawn)	-3%	-1%	-3.7%	.
79	COc1ccc(C(=S)N2CCCCC2)cc1Br	-12%	11%	3.4%	5
80	Cc1ccc(C(=O)c2c3ccc([N+](=O)[O-])cc3[n+]([O-])n2CCCC(N)=O)cc1	.	-6%	8.4%	.
81	CS(=O)(=O)N(Cc1ccccc1Cl)c1ccc(C(=O)NCc2ccccn2)cc1	-3%	6%	0.2%	1
82	O=C(/C=C/c1cccnc1)c1ccc(O)cc1	?	-6%	-3.6%	-1
83	Cc1ccc(-c2noc(-c3c(C)noc3C)n2)cc1	-3%	1%	-1.0%	-6
84	COc1cc(C(=O)Nc2ccc(N3CCN(C(=O)c4ccc(C)cc4)CC3)cc2)cc(OC)c1OC	-1%	-9%	-0.6%	.
85	COc1ccc(C(=O)NC2CCCc3ccccc32)cc1S(=O)(=O)N1CCOCC1 (stereo not drawn)	-12%	-8%	3.4%	-1
86	COCCN(C(=O)c1csnn1)C(C(=O)NC1CCCCC1)c1sccc1C (stereo not drawn)	-9%	7%	3.0%	0
87	COc1ccccc1N1CCN(C(=S)NC(=O)/C=C/c2ccccc2)CC1	-63%	4%	2.3%	-9
